Screens deposited in PubChem BioAssay by National Center for Advancing Translational Sciences (NCATS).
GLA inh pH 4.5 = blocks human alpha-galactosidase A at pH 4.5 | purified enzyme, 4-MU-alpha-Gal fluorescence, pH 4.5 | activity change, negative = inhibition, % at 105 µM | 230,000 tested, under 10 active | AID 1467; inconclusive = small, poorly fitted or top-dose-only inhibition, or a rising curve; inactive = flat fitted curve, though single readings scatter; no compound was filed as active;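 also: 0% = full activity with enzyme and -100% = basal without enzyme; dose as in the result columns while the protocol names 77 µM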
Target sequence (P06280 whole entry, looked up): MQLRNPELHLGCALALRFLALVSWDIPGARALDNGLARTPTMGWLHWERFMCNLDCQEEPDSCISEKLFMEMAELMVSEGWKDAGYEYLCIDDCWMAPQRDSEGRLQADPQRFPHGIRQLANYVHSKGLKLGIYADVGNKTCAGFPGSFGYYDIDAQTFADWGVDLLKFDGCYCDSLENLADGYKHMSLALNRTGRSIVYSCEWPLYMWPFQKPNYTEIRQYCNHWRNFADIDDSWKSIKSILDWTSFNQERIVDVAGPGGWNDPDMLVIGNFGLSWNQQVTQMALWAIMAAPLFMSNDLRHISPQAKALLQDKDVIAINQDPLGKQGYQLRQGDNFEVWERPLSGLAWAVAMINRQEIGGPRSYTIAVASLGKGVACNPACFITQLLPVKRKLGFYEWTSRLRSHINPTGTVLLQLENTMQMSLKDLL
Rango dissoc inh = prevents RanGTP from dissociating the Rango-importin beta complex | AID 540253 | Biochemical FRET Rango-importin beta, RanGTP-induced dissociation | 340,000 compounds, 0.071% hits | Potency, µM (doses to about 46.1 µM), without a hit: at the top dose activity change, negative = inhibition | O95149+P62826; active means falling FRET ratio curve, often poorly fitted, with flat reads before Ran was added; inconclusive means other falling curves, or compound fluorescence or quenching; inactive means flat or rising ratio curve;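 also: potency is read from the fitted curve at half-maximal effect; % of control where 0% means no effect; nearly all actives have a fitted effect of over 45% in size; -100% = wells without RanGTP and RCC1; the record marks most hits as doubtful in a second field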
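FRET read at 45 min, room temperature: inhibitors block the CFP/YFP signal rise when RanGTP (0.6 uM Ran, 2 mM GTP, 0.2 uM RCC1) frees Rango (0.1 uM) from importin beta (0.25 uM). Pre-read after 5 min compound exposure flags interference.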
Rango complex inh = Rango-importin beta binding inhibition; Potency, µM (highest dose often 92.2 µM), without a hit: top-dose inhibition of complex formation; 340,000 compounds, 0.031% hits; Q14974; Rango CFP/YFP FRET sensor + importin beta, 45 min; AID 540263; active = rising FRET ratio curve, often small or poorly fitted; inconclusive = mostly compound fluorescence or quenching in the first reads; inactive = flat curves in all reads;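 also: potency is read from the fitted curve at half-maximal effect; 0% = DMSO wells and 100% = buffer wells lacking importin beta; nearly all actives have a fitted effect of over 15% in size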
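FRET biosensor (snurportin 1 IBB flanked by EYFP and cerulean), 50 nM, with compound 5 min, then 0.125 microM importin beta in PBS, 1 mM DTT, 0.02% Tween-20, 0.1% BSA. CFP/YFP ratio read after 45 min at room temperature; pre-read flags interference.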
miR-21 reporter = raises the signal of a miR-21 reporter; HeLa miR-21 FLuc reporter, luciferase, 48 h; Potency, µM (titrated, usually from 38.3 µM), without a hit: at the highest dose reporter change, positive = more light; 340,000 tested, under 10 active; active = well fitted rising curve with a large enough effect; inconclusive = small, poorly fitted or top-dose-only effect; inactive = no such curve, though single readings can be large or run the other way;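 also: % of control where 0% means no effect; miR-21 action dims this reporter so a rising signal means less miR-21 action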
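Luminescence from a firefly luciferase reporter carrying a miR-21 binding site downstream, stably expressed under a CMV promoter in HeLa cells that make miR-21 endogenously, reports miRNA modulation after 48 h compound exposure up to approximately 40uM final.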
Active calls of the source: *; u = inconclusive; x = not tested or not shown; [ ] = another dose, or the depositor's remark.

molecule | GLA inh pH 4.5 | Rango dissoc inh | Rango complex inh | miR-21 reporter
CC1=Nc2ccccc2/C1=C\c1nc(-c2ccccc2)oc1O | 5 | u | u | -2%
CCOC(=O)[C@@H]1[C@H]2COc3ccc(Br)cc3[C@@H]2N2C(=O)N(c3ccc(Cl)cc3)C(=O)[C@]12C | x | 2% | 3.7% | x
CN(c1ccccc1)S(=O)(=O)c1cccc(NC(=O)c2ccncc2)c1 | -8 | 12% | -1.0% | 27%
CCOC(=O)C1CCCN(C(=O)CCNS(=O)(=O)c2ccc3c(c2)CCC(=O)N3)C1 (stereo not drawn) | -7 | 0% | 0.7% | -1%
CCOc1ccc(NC(=O)CN2C(=O)COc3ccccc32)cc1 | x | -4% | 0.0% | -11%
COc1ccc(N2C(=O)/C(=C\c3ccco3)N=C2SCC(N)=O)cc1Cl | u | -12% | 1.1% | -7%
O=S(=O)(Cc1ccccc1)N1CCN(Cc2ccc3c(c2)OCO3)CC1 | 2 | -8% | -2.4% | -11%
CCNc1nc(Cl)nc(NCc2ccccc2)n1 | 6 | -8% | -1.3% | -7%
Clc1ccc(-c2csc(N3CCOCC3)n2)cc1 | 2 | -23% | -0.4% | -61%
COC(=O)c1nc(NC(=O)c2ccccc2Br)n[nH]1 | 3 | 8% | -2.8% | 0%
COc1ccc(C(c2nnnn2Cc2ccccc2)N2CCN(C(=O)c3ccco3)CC2)cc1OC (stereo not drawn) | -4 | 0% | -1.0% | 0%
C/C(=N\Nc1ccc(C(=O)O)cc1)c1ccc(-n2ccnc2)cc1 | -4 | 0% | -1.5% | -59%
COc1cccc(OC)c1CNC(=O)CCSCc1ccccc1F | 5 | 1% | 4.1% | -1%
COc1ccc(CCNc2nc3ccccc3n3cnnc23)cc1OC | -3 | -5% | -1.2% | -2%
CSc1ncccc1C(=O)OCC(=O)NC(N)=O | -3 | 13% | 1.2% | 4%
C[C@H](CO)N1C[C@H](C)[C@@H](CN(C)S(=O)(=O)c2ccccc2)Oc2ccc(NC(=O)c3ccncc3)cc2C1=O | x | -1% | 1.1% | x
NC(=O)CSc1nc(N)c2c3c(sc2n1)CCCCC3 | 13 | 2% | 1.9% | -41%
CCC1CCCCN1C(=O)c1ccc(OC2CCN(C(=O)COC)CC2)cc1 (stereo not drawn) | x | -10% | -3.2% | -9%
Cc1c(C(=O)NCC2CCCO2)oc2ccc(S(=O)(=O)N3CCCC3)cc12 (stereo not drawn) | -4 | -7% | -1.0% | 27%
Cn1c(NCc2cc(Br)ccc2O)nc2ccccc21 | 7 | 3% | -1.0% | -18%

For reference, some entries already given.
molecule | GLA inh pH 4.5 | Rango dissoc inh | Rango complex inh | miR-21 reporter
CC1=Nc2ccccc2/C1=C\c1nc(-c2ccccc2)oc1O | 5 | u | u | -2%
CCOC(=O)[C@@H]1[C@H]2COc3ccc(Br)cc3[C@@H]2N2C(=O)N(c3ccc(Cl)cc3)C(=O)[C@]12C | x | 2% | 3.7% | x
CN(c1ccccc1)S(=O)(=O)c1cccc(NC(=O)c2ccncc2)c1 | -8 | 12% | -1.0% | 27%

More entries follow:
molecule | GLA inh pH 4.5 | Rango dissoc inh | Rango complex inh | miR-21 reporter
Nc1cc(Oc2ccc(F)cc2F)cc([N+](=O)[O-])c1 | -2 | 0% | -2.5% | 0%
Cc1ccsc1C(=O)OCC(=O)NCc1ccc2c(c1)OCO2 | -5 | -12% | -4.6% | -25%
CC(C)C(C)NC(=O)Cn1cnc2c(oc3ccccc32)c1=O (stereo not drawn) | x | -9% | -3.0% | -31%
CCc1nnc(NC(=O)CSc2nnc(C3CC3)n2C)s1 | x | -5% | -0.6% | -2%
O=C1[C@H](Cc2ccccc2)NCC=CC[C@H](c2ccco2)N1Cc1ccccc1 | x | 12% | 0.4% | x
CCC(C)c1ccccc1N1CC(C(=O)N2CCN(C(=O)c3ccco3)CC2)CC1=O (stereo not drawn) | x | 2% | 1.7% | x
CCOC(=O)c1cnc(-n2[nH]c(C)cc2=O)[nH]c1=O | 10 | 9% | 3.4% | 0%
CCN(CC)C(=O)CSc1nc(N)c(C(=O)Nc2ccc(OC)cc2)s1 | -8 | -6% | 3.7% | -19%
Cc1cccc2nc(-c3cccc(NC(=O)Cc4ccccc4)c3)cn12 | 1 | -15% | -0.3% | -16%
COc1ccc(OC)c(CN2C(=O)c3ccccc3C2C(=O)NCC2CCCO2)c1 (stereo not drawn) | 8[21.1 µM] | 0% | 0.0% | 0%
Cc1cc(C)c(C)c(OCCCn2ccnc2)c1 | 5 | -9% | 3.8% | 4%
C=CC[C@@H](CC(=O)N[C@H](CO)Cc1ccccc1)C(=O)N[C@@H](C)COC(=O)[C@@H](CC=C)CC(=O)OC(C)(C)C | x | 24% | 5.2% | x
Cc1ccccc1C(=O)N1CCN(c2ccc(NC(=O)Cc3ccccc3)cc2)CC1 | x | -8% | -4.8% | 3%
CN(CC(=O)Nc1cccc(F)c1)C(=O)CCNC(=O)c1ccc(Br)cc1 | x | -10% | -0.5% | -37%
Cc1cccc(N(C(=O)CS(=O)CC(=O)Nc2ccc3c(c2)OCO3)C(C)C(=O)NC2CCCC2)c1C (stereo not drawn) | 9 | 12% | 9.0% | 3%
CC(C)CCN1CCN(Cc2ccc(Sc3nncn3C)o2)CC1CCO (stereo not drawn) | 1 | -10% | -2.1% | -1%
COc1ccc(C2=CCN3CCCCC3C2)c(-c2ccc(OC)c(OC)c2)c1 (stereo not drawn) | x | -21% | u | x
Cc1nn(C)cc1C(C)NC(=O)c1cc(COc2ccc(F)c(F)c2)on1 (stereo not drawn) | x | 25% | -5.0% | -17%
OCCC#Cc1ccc(CN2CCN(C3CCCCC3)C(CCO)C2)cc1 (stereo not drawn) | -3 | 3% | -6.7% | 0%
O=C(NCc1ccccc1Cl)c1ccc(S(=O)(=O)Nc2cccc(C(F)(F)F)c2)cc1 | -3 | 4% | 1.5% | -1%
O=C(COc1ccc(F)cc1)NCCCn1ccnc1 | x | -19% | 3.0% | 1%
COc1c(Cl)cnn(-c2cccc(C)c2)c1=O | x | 11% | 1.1% | 3%
Cc1csc(NC(=O)Cc2nn(C)c(=O)c3ccccc23)n1 | 8 | 5% | -6.8% | 6%
NS(=O)(=O)c1ccc(O)c(NC(=O)c2ccc([N+](=O)[O-])o2)c1 | -16 | 10% | -3.8% | 11%
O=C1CCC(C(=O)N2CCCC2)CN1Cc1cccc(C(F)(F)F)c1 (stereo not drawn) | x | 11% | -2.7% | 1%
CCOC(=O)COn1c(=O)c[n+]([O-])c2ccccc21 | 1 | 7% | 0.0% | -4%
Cc1ccc(-c2nc3c(c(SCC(=O)N4CCOCC4)n2)COC(C)(C)C3)cc1 | x | -11% | -0.6% | x
CCOC(=O)N1CCN(S(=O)(=O)c2ccc(C)c(C)c2C)CC1 | 1 | -12% | 7.5% | -13%
COc1cccc(Nc2nc(-c3cccc(N4C(=O)c5ccccc5C4=O)c3)cs2)c1 | 6 | 0% | -0.3% | -17%
CCN(CC)C(=O)Cn1cc(C(=O)C(=O)NCC2COc3ccccc3O2)c2ccccc21 (stereo not drawn) | -19 | 17% | -0.2% | -9%
CCOC(=O)C1CCCN(C(=O)c2cccc(NC(=O)C(CC)CC)c2)C1 (stereo not drawn) | 0 | 8% | 2.0% | -2%
CCN(C(C)=O)c1ccc(Oc2nc(OC)cc(OC)n2)cc1 | -2 | 3% | -2.7% | -5%
COc1ccc2c(c1)oc(=O)c1c3ccccc3[nH]c21 | 2 | 20% | 0.3% | -35%
CCC1(C)Cc2nc3[nH]c(=S)n(-c4ccccc4C)c(=O)c3cc2CO1 (stereo not drawn) | 3 | 2% | 1.2% | 0%
CCNc1nnc(-c2ccccc2OC)s1 | 0 | -6% | -3.9% | -30%
CN(CC(=O)Nc1ccccc1Br)C(=O)c1cccnc1Nc1cccc(C(F)(F)F)c1 | x | -8% | 0.3% | 30%
NC(=S)n1[nH]c(-c2ccc([N+](=O)[O-])cc2)c(N=Nc2cccc(Cl)c2)c1=O | -4 | 1% | 0.6% | 4%
CC(CCc1ccccc1)NC(=O)CN1CCN(c2ccccc2)CC1 (stereo not drawn) | 8 | -1% | -2.0% | -11%
O=C(NCc1ccco1)c1ccc(COc2ccccc2Cl)cc1 | -1 | -11% | -1.2% | -29%
Cc1cc(C)cc(OCC(=O)N(Cc2ccc(N(C)C)cc2)C2CCS(=O)(=O)C2)c1 (stereo not drawn) | -9 | 0% | 1.0% | 3%
CCN1CCN(C(=O)c2ccccc2NC(=O)c2ccc(Cl)cc2)CC1 | x | 14% | 2.8% | -2%
Cc1[nH]c2ccc(C(=O)NCCCN3CCCC3)cc2c1C | x | -10% | 0.2% | -3%
O=C(/C=C/c1cccc(F)c1)NCCCn1ccnc1 | x | 0% | 0.0% | -9%
O=C1NC(c2cccc(Br)c2)=N/C1=C\c1ccco1 | -6 | u | u | -55%
C=CCSc1nc2c(c(=O)[nH]c(=O)n2C)n1C/C=C(/C)Cl | 4 | -9% | 0.1% | -11%
O=C(CCC(=O)OCc1ccc([N+](=O)[O-])cc1)Nc1ccccc1Cl | 0 | -1% | -0.4% | -1%
O=C1CC(c2ccccc2Oc2cccc(Cl)c2)C(n2cncn2)C(=O)C1C1NCCc2ccccc21 (stereo not drawn) | 9 | -18% | -0.8% | 8%
CC(C)NC(=O)COc1cccc2ccccc12 | 8 | 21% | 4.2% | -7%
CCN(CC)C(=O)C12CC3CC(CC(Cl)(C3)C1)C2 | 6 | 7% | -0.5% | -2%
CCOc1ccc(CCNC(=O)CCS(=O)(=O)c2ccc(C)cc2)cc1OCC | x | -5% | -0.4% | -4%
CN(C)c1cc(N/N=C/c2ccccc2C(F)(F)F)nc(N(C)C)n1 | x | 1% | -0.9% | 0%
CCOC(=O)c1nnn(-c2nonc2N)c1CSc1ccccc1 | 8 | 1% | 2.2% | 3%
O=C(Nc1ccc(Cl)c(Cl)c1)c1ccc(Cl)c(Cl)c1 | -8 | 0% | 2.0% | -59%
CCOc1ccc(S(=O)(=O)NC2CCCCC2C)cc1 (stereo not drawn) | x | 24% | -4.4% | x
Clc1ccc(N2CCN(c3ccnc(Cl)n3)CC2)cc1 | x | 1% | -0.4% | x
COc1ccc(CCNC(=O)CSC2=NS(=O)(=O)c3ccccc3N2)cc1OC | x | -1% | 0.6% | x
COc1ccc(C2CC2/C(=N/O)c2ccccc2)cc1 (stereo not drawn) | -1 | 9% | 4.1% | -48%
Cc1ccc(NC(=O)Cn2c(C)cc(C)c(C#N)c2=O)c(Cl)c1 | 4 | 8% | -3.6% | -1%
Cc1ccc(NS(=O)(=O)c2ccc(Br)s2)nc1 | -5 | -6% | 3.5% | 0%
CC(=O)Nc1ccccc1-c1nc2ccccc2nc1OCC(=O)c1ccc2ccccc2c1 | -10 | 0% | 0.0% | -20%

Continued.
molecule | GLA inh pH 4.5 | Rango dissoc inh | Rango complex inh | miR-21 reporter
COc1cccc(NC(=O)C(c2ccccc2)N2CCCCC2)c1 (stereo not drawn) | 5 | -13% | -0.6% | 5%
O=C(Nc1cccc(Cl)c1)c1cccc(Oc2ccc([N+](=O)[O-])cc2Cl)c1 | -1 | 20% | 0.7% | 11%
COCc1nc2oc3ccc(C)cc3c(=O)c2cc1C(=O)OC | x | 4% | 4.3% | -41%
Cc1ccccc1C(C)NS(=O)(=O)c1ccc2c(c1)OCCO2 (stereo not drawn) | x | -13% | 1.6% | x
CCn1cnc2c1c(=O)n(Cc1nnc3n1-c1ccccc1SC3)c(=O)n2Cc1ccccc1 | -9 | -7% | -2.6% | -1%
Nc1nnc(CSCc2ccccc2Cl)s1 | 0 | -1% | 0.5% | -17%
O=C(O)CC(NC(=O)COc1ccc(Cl)cc1Cl)C(=O)O (stereo not drawn) | 0 | 0% | 12% | -6%
Nc1ccc(C(=O)c2cccs2)cc1[N+](=O)[O-] | 3 | 4% | 0.1% | -51%
COC(=O)c1ccc(C)c(NS(=O)(=O)c2ccc(OC)c(OC)c2)c1 | -3 | -5% | -0.2% | -3%
CCOc1ccc(S(=O)(=O)NCCC(=O)NCC2(N3CCCCC3)CCCCC2)cc1 | x | 8% | -2.7% | 0%
O=C(CSc1ccc(-c2ccncc2)nn1)c1ccc(Cl)cc1 | 0 | 1% | -2.9% | 2%

Some of the compounds tested (hit frequency here may not be typical).
